# Screening data deposited in PubChem BioAssay by ICCB-Longwood Screening Facility, Harvard Medical School.
# BasE inh = BasE siderophore enzyme inhibitors, primary screen, biochemical, Acinetobacter baumannii ATCC 17978, fluorescence polarization. purified BasE, fluorescence polarization binding displacement. inhibition, % (no concentration beside the values). 84,000 tested, 0.1% active;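 active = both replicates above 25% with normal brightness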;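 also: 0% = negative plate control signal and 100% = positive plate control signal; stock transfer was 100 nL into about 30 µL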
# KSHV LANA nucl = inhibitors of KSHV LANA-nucleosome binding, primary screen, biochemical, fluorescence polarization, FITC-LANA1-23, chicken nucleosomes; FITC-LANA1-23 / chicken nucleosome fluorescence polarization; active compounds read low; z-score (no concentration beside the values); 51,000 tested, 0.3% active;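 active = both repeat wells score below -2 in polarization z-score versus plate sample wells, excluding overly bright wells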;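 also: 100 nL library stock added to about 30 µL; numbers are from one replicate; some results filed as inactive read as strong as hits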
#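 Test system: purified chicken nucleosomes with FITC-labelled LANA N-terminal peptide (1-23); Input: 240 nM purified chicken nucleosomes (480 nM peptide binding sites), final; Medium: TEN-BT buffer, pH 7.5; Timing: 10–45 min, room temperature; Technique: fluorescence polarization, 480 nm excitation, 535 nm parallel and perpendicular emission; Replication: duplicates.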
# An asterisk follows results filed as active; x = no result given. Not all compounds are listed, so the mix of outcomes need not match the whole.
# Sample of the layout:
SMILES,BasE inh,KSHV LANA nucl
Cc1ccc2nc(-c3ccc(C)o3)c(Nc3ccc4c(c3)OCO4)n2c1,0.7,-1.32
Cc1cc(OCC(=O)Nc2ccc(N3CCN(C(=O)c4ccco4)CC3)cc2)cc(C)c1Cl,3.6,1.65
Clc1ccc2c(c1)c1nc3ccccc3nc1n2Cc1nc2ccccc2o1,1.6,-0.267
CCCCC(CC)C(=O)Nc1nnc(C(C)C)s1 (stereo not given),0.8,-0.505
Clc1ccc(-n2ccc3ccccc32)cc1,0.1,-1.19
O=C(c1nc2ncccn2n1)N1CCN(C(c2ccccc2)c2ccccc2)CC1,2.0,0.273
O=C(O)CN(Cc1ccccc1)Cc1ccccc1,x,2.64
COc1ccc(-n2ncc3c(NCCC4=CCCCC4)ncnc32)cc1,-0.3,-1.15
CC(NC(=O)CN1CCN(C(=O)c2cccs2)CC1)c1ccc(F)cc1F (stereo not given),-3.4,x
O=C(Cc1ccc(Oc2ccccc2)cc1)c1ccccc1,-0.3,x
CC1S/C(=N\NC(=O)CNc2cccc(Cl)c2)N(c2ccccc2)C1=O (stereo not given),3.0,0.272
Cc1nnc(SCC(=O)Nc2cc(C(F)(F)F)ccc2N2CCOCC2)n1C1CC1,2.2,x
O=C(CSc1nnc(-c2ccncc2)n1Cc1ccco1)N(c1ccccc1)c1ccccc1,0.0,-0.089
NC(=O)CSc1ncnc2sc(-c3ccccc3)cc12,1.9,x
Cc1cc(=O)[nH]c(NNC(=O)NC2CCCCC2)n1,3.6,x
O=C1Nc2ccccc2S(=O)(=O)N1Cc1ccccc1,1.0,0.388

# The list itself, from the start:
SMILES,BasE inh,KSHV LANA nucl
Cc1ccc2nc(-c3ccc(C)o3)c(Nc3ccc4c(c3)OCO4)n2c1,0.7,-1.32
Cc1cc(OCC(=O)Nc2ccc(N3CCN(C(=O)c4ccco4)CC3)cc2)cc(C)c1Cl,3.6,1.65
Clc1ccc2c(c1)c1nc3ccccc3nc1n2Cc1nc2ccccc2o1,1.6,-0.267
CCCCC(CC)C(=O)Nc1nnc(C(C)C)s1 (stereo not given),0.8,-0.505
Clc1ccc(-n2ccc3ccccc32)cc1,0.1,-1.19
O=C(c1nc2ncccn2n1)N1CCN(C(c2ccccc2)c2ccccc2)CC1,2.0,0.273
O=C(O)CN(Cc1ccccc1)Cc1ccccc1,x,2.64
COc1ccc(-n2ncc3c(NCCC4=CCCCC4)ncnc32)cc1,-0.3,-1.15
CC(NC(=O)CN1CCN(C(=O)c2cccs2)CC1)c1ccc(F)cc1F (stereo not given),-3.4,x
O=C(Cc1ccc(Oc2ccccc2)cc1)c1ccccc1,-0.3,x
CC1S/C(=N\NC(=O)CNc2cccc(Cl)c2)N(c2ccccc2)C1=O (stereo not given),3.0,0.272
Cc1nnc(SCC(=O)Nc2cc(C(F)(F)F)ccc2N2CCOCC2)n1C1CC1,2.2,x
O=C(CSc1nnc(-c2ccncc2)n1Cc1ccco1)N(c1ccccc1)c1ccccc1,0.0,-0.089
NC(=O)CSc1ncnc2sc(-c3ccccc3)cc12,1.9,x
Cc1cc(=O)[nH]c(NNC(=O)NC2CCCCC2)n1,3.6,x
O=C1Nc2ccccc2S(=O)(=O)N1Cc1ccccc1,1.0,0.388
N#CC1=C(N)N(c2ccc(S(N)(=O)=O)cc2)C2=C(CCC2)C1(C(F)(F)F)C(F)(F)F,0.6,x
COC(=O)Cn1ncc2c3ccccc3n(Cc3ccccc3F)c2c1=O,-0.6,2.45
CN(C)S(=O)(=O)c1ccc(C(=O)OCC2CCCO2)cc1 (stereo not given),1.2,x
O=c1c(O)c(-c2ccc(O)cc2)oc2cc(O)cc(O)c12,-0.8,-1.37

# The closing two compounds of the section above lead into the next:
SMILES,BasE inh,KSHV LANA nucl
CN(C)S(=O)(=O)c1ccc(C(=O)OCC2CCCO2)cc1 (stereo not given),1.2,x
O=c1c(O)c(-c2ccc(O)cc2)oc2cc(O)cc(O)c12,-0.8,-1.37
CN1CCC(=NOC(=O)c2ccc(Cl)cc2)CC1,-1.8,-0.102
COC(=O)c1ccsc1NC(=O)/C=C\C(=O)O,1.4,0.171
CCOc1ccc(-n2c(N)c(C(=O)N3CCN(C)CC3)sc2=S)cc1,5.5,-0.651
CCN(CC)C(=O)Cn1ncc2c1-c1cc(C)ccc1OC2,-0.7,0.19
CCOC(=O)N1CCN(C(=O)CCN2c3ccccc3Sc3ccccc32)CC1,0.2,x
CCSc1nc(-c2ccccc2)cc(C)c1C#N,-3.5,2.47
O=C(CN1CCN(c2ccccc2Cl)CC1)NC(=O)Nc1ccccc1F,0.8,x
NNC(=O)CSc1c(-c2cccs2)[nH]c2ccccc12,3.4,-0.036
O=C1c2ccccc2S(=O)(=O)NN1CC(=O)N1CCCc2ccccc21,1.0,x
Cc1nn(C2CCS(=O)(=O)C2)c(Cl)c1/C=C/C(=O)OCc1csc(-c2ccccc2)n1 (stereo not given),-0.3,x
Cc1cc(=O)[nH]c(SCC(=O)c2cccs2)n1,0.8,x
O=C(c1ccc2c(c1)N(Cc1ccc(F)cc1)C(=O)c1ccccc1S2=O)N1CCN(c2ccccc2)CC1 (stereo not given),-1.8,-0.432
CSc1nc(CSc2nnc(-c3ccccc3)n2-c2ccc(Cl)cc2)cc(=O)[nH]1,0.5,x
COc1ccc(-c2nn3c(C)nnc3s2)cc1OC,0.1,1.38
O=S(=O)(NC1CCCCCC1)c1ccccc1,-0.8,x
CCN(CC)S(=O)(=O)c1cccc(C(=O)OCN2C(=O)c3ccccc3C2=O)c1,2.5,x
COc1ccc(-c2c3c(=O)n(C)c(=O)n(C)c3c3n2C(C)(C)COC3)cc1,2.0,-0.432
Cc1ccc(S(=O)(=O)NC(=O)N(C)c2ccccc2)cc1,0.0,x
Cn1c(Cc2nnc3n2-c2ccccc2SC3)nc2ccccc21,-1.7,x
COn1c(=O)c(-c2ccc(I)cc2)[n+]([O-])c2ccccc21,-2.5,3.02
CN(Cc1ccccc1)S(=O)(=O)c1ccc(F)cc1,3.6,-1.16
CC1(C)CCc2cc(CN3CCN(c4ccccn4)CC3)ccc2O1,x,-0.398
CCN(CC)c1nc2c3c(nc4c(c3c1C#N)CC(=O)N4c1cc(Cl)cc(Cl)c1)NC(C)=N2,0.7,x
CC(O)C(Nc1ncnc2ccccc12)C(=O)O (stereo not given),0.6,-0.76
Cc1c(C(=O)NC2=NCCS2)sc2nc3n(c(=O)c12)CCCCC3,-1.3,x
Cn1c(=O)c(C(=O)CN2CCCCC2)c(N)n(Cc2ccccc2)c1=O,-1.4,x
COc1ccc2oc(C(=O)N(C)Cc3nc4ccccc4c(=O)[nH]3)c(C)c2c1,1.7,x
COC(=O)CC(=O)CSc1nc(C)cc(C)c1C#N,3.1,0.37
Cc1cn(C2OC(COC(=O)c3ccccc3)C(O)C2O)c(=O)[nH]c1=O (stereo not given),3.4,x
N#CC1=C(N)C(C#N)(C#N)C(c2cccs2)C=C1C1CC1 (stereo not given),1.8,x
COc1cccc(C(=O)NCCc2cc3ccc(OC)cc3[nH]c2=O)c1,-6.1,0.267
COC(=O)c1cc2nc(C)cc(C(F)(F)F)n2n1,-0.1,0.549
COC(=O)c1cc(CSc2cccc[n+]2[O-])oc1C,-0.5,x
O=C(CSc1nc2ccccc2o1)NCc1ccc(F)cc1,12.4,x
CC(=O)Nc1ccc(C(=O)OCC(N)=O)cc1,-1.7,x
O=C(COC(=O)c1ccc(Oc2ccccc2)cc1)Nc1ncccn1,-0.1,x
CCCCN(Cc1nnc(-c2ccccc2)o1)c1ccccc1,-1.4,0.622
Cc1cccc(NC(=O)Cn2c(=O)n(CCCC(=O)NCc3ccc4c(c3)OCO4)c(=O)c3ccccc32)c1,0.7,0.296
COC(=O)c1cc(S(=O)(=O)Nc2nn(C)c3cccc(F)c23)oc1C,3.1,-0.732
O=C(O)CC(c1ccsc1)n1cccc1 (stereo not given),x,-0.776
CN(C)/C=C/C(=O)c1ccco1,7.7,0.16
CC(NCCCO)c1ccccn1 (stereo not given),2.8,0.139
O=C(NCc1ccco1)C1CCN(S(=O)(=O)Cc2ccccc2)CC1,-1.3,2.69
O=C(/C=C/CC(=O)OC1CCCC1)OC1CCCC1,-1.1,x
N#Cc1c[nH]c2ccc(N3C(=O)c4ccccc4C3=O)cc12,0.7,0.0415
C=CCSc1nnc(NC(=O)c2oc3ccccc3c2C)s1,0.2,x
CC(C)NC(=O)CC1Sc2ccccc2NC1=O (stereo not given),-0.7,0.13
CCOC(=O)c1c(C)[nH]c(C(=O)NCC(c2ccco2)N2CCCCC2)c1C (stereo not given),0.0,x
COc1ccc(C2=NN(C(=O)CCC(=O)O)C(c3ccccc3F)C2)cc1OC (stereo not given),1.5,-0.915
Cc1ccc(-n2c(C)cc(C(=O)CC#N)c2C)cc1C,-3.6,x
N#CCc1nc(-c2ccccc2)no1,-4.3,x
CCOC(=O)c1c(N(C)C)ccc(C2C=CNC(=O)N2)c1C (stereo not given),2.8,x
O=S(=O)(c1ccc(Br)cc1)N1CCn2c(nc3ccccc32)C1,-0.7,-0.321
NC(=O)COc1ccc2ccc(=O)oc2c1,2.2,-0.204
COCCn1c(SCc2nc3ccccc3nc2C)nc2ccccc21,1.5,x
COc1ccc(-n2c(SCC(=O)N(C)Cc3cccs3)nc3ccccc32)cc1,0.0,x
CC(C)=NNC(=S)Nc1ccc(Cl)cc1,2.2,-0.201
CCOC(=O)N1CCC(NC(=O)CN2C(=O)COc3ccc(C(C)(C)C)cc32)CC1,3.0,-0.398
CCOC(=O)C1=C(C)NC(=O)NC1c1c(O)ccc2ccccc12 (stereo not given),-0.8,2.48
COc1ccc(C(=O)C[n+]2ccc3c(c2)nnn3C)cc1,-0.2,x
# Remaining list, next part:
SMILES,BasE inh,KSHV LANA nucl
CC(C)C(SCc1ccccc1)C(=O)NC(N)=O (stereo not given),3.5,x
CCn1cc(-c2cc(C(=O)O)on2)cn1,2.0,0.202
CCOc1ncccc1C(=O)N(C)CC1COc2ccccc2O1 (stereo not given),1.9,x
COCCCn1c(=O)[nH]c(=O)c2c(N)c(C(=O)c3ccccc3)sc21,-1.5,x
O=C(CN1C(=O)c2ccccc2C1=O)c1ccc(C(F)(F)F)cc1,1.0,x
CN(C(=O)COC(=O)Cn1nnc(-c2ccccc2)n1)C1CCCCC1,0.4,x
Cc1cc(C)c(N(CC(O)Cn2cc(/C=N/O)c3ccccc32)S(C)(=O)=O)c(C)c1 (stereo not given),18.7,-0.367
O=C(c1cccc(F)c1)N1CC=C(c2ccccc2)CC1,x,-0.123
CC1CCCC(C)N1NC(=O)c1ccc2c(c1)SC1=NS(=O)(=O)CCN12 (stereo not given),-0.5,x
CCN1CCCC1CNC(=O)Nc1ccc(Cl)c(Cl)c1 (stereo not given),-4.9,x
CCc1ccc(OC(C)C(=O)Nc2cc(-c3ccc(C)cc3)no2)cc1 (stereo not given),1.3,0.019
Cc1ccc(-c2nn3c(=O)c4ccccc4nc3c3ccccc23)cc1,1.2,x
CC(=O)OC[C@H]1OC=C[C@@H](OC(C)=O)[C@@H]1OC(C)=O,0.6,-0.065
COc1ccccc1N1CCN(CCCCNC(=O)c2ccc3ccccc3c2)CC1,-1.7,-0.161
Oc1ccccc1C1=NNC(O)(C(F)(F)F)C1 (stereo not given),3.0,x
NCC12CC3CC(C1)CC(C(=O)O)(C3)C2,-1.1,0.384
Cc1cc(C)nc(N2CCC(NC(=O)Cc3cccs3)CC2)n1,-1.6,-0.818
COC(CN(C)C(=O)c1c[nH]c2ccc(S(=O)(=O)Nc3ccccc3F)cc2c1=O)OC,-0.6,-0.118
CCCNC(=O)C1=NS(=O)(=O)c2ccccc2N1,1.8,-0.0545
O=C(Cc1ccc(S(=O)(=O)N2CCOCC2)s1)Nc1ccccc1Br,-3.4,x
Cc1cc2nc(N(C)C)c3ccccc3n2n1,2.3,x
COC(=O)c1sc2nc(C)cc(C)c2c1N,-0.6,-0.292
CCOC(=O)c1cc(=O)c2ccc(OCC(=O)Nc3ccc4c(c3)OCCO4)cc2o1,-0.6,-0.607
CCN1C(=O)C(CC(=O)Nc2ccc(C(=O)OC)cc2)N(CCN2CCOCC2)C1=S (stereo not given),-0.1,-0.0845
CC(C)(C)c1cc2nc(N)nc(N)n2n1,1.8,x
CN(C)CCN1C(=O)c2ccccc2Sc2ccccc2S1(=O)=O,x,0.368
CC(C)N1C(=O)C(O)(c2nnc(-c3ccccc3)o2)c2ccccc21 (stereo not given),-3.4,x
c1ccc2sc(SN3CCOCC3)nc2c1,2.0,x
CN(C)S(=O)(=O)c1ccc2oc3nnc(SCC#N)n3c2c1,-1.0,x
CCOC(=O)C1=NN(c2ccccc2)C(=O)C1,1.0,-1.04
Cc1ccc(S(=O)(=O)Nc2ccc(N=NN3CCCCC3)cc2)cc1,1.4,-1.01
Cc1ccccc1OCC(=O)Nc1nn2c(C)nnc2s1,8.7,2.2
Cc1cc(C)cc(-n2c(=O)c3oc4ccccc4c3n(Cc3ccc(F)cc3)c2=O)c1,0.5,0.498
COc1cc2sc(=NC(=O)CCS(=O)(=O)c3ccccc3)n(C)c2cc1OC,0.0,-0.879
CC1=CC(=C2C(=O)NC(=O)NC2=O)C=C(C)N1c1ccccc1,4.5,-1.46
CCN1C(=O)/C(=C\c2cccs2)SC1=Nc1cc(C)on1,0.5,0.681
CSc1cccc(NC(=O)c2cccc(CS(C)(=O)=O)c2)c1,-3.1,x
COc1ccc(/C=C/C(=O)Nc2c3c(nc4c2CCC4)CCCC3)cc1OC,-0.4,x
Cc1cc(SCC(=O)N(C)C)nc2ccccc12,1.2,x
CC(Oc1ccc(Br)cc1)C(=O)N1CCCCC1 (stereo not given),4.3,-1.15
CSc1cccc(NC(=O)/C=C/c2ccccc2)c1,-1.2,0.967
O=c1c2c3c(sc2nc2n1CCCCC2)C(O)CCC3 (stereo not given),2.0,-0.635
